# PABP FP inh – PABP-poly(A) binding inhibition; P11940; PABP-poly(A) RNA binding, fluorescence polarization; inhibition, % at 35 µM; hit rate 1% among 290,000; AID 2014;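 active means 50% or more with normal probe brightness, or confirmed in later tests; about a fifth of its hits are not listed in these tables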;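 further: calls also rest on retests at 20 µM and on dose response follow-up; controls were probe without protein and protein plus probe with vehicle; some compounds called inactive have numbers as strong as hits; many hits fall short of the cut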
# Target sequence (P11940 whole entry, looked up): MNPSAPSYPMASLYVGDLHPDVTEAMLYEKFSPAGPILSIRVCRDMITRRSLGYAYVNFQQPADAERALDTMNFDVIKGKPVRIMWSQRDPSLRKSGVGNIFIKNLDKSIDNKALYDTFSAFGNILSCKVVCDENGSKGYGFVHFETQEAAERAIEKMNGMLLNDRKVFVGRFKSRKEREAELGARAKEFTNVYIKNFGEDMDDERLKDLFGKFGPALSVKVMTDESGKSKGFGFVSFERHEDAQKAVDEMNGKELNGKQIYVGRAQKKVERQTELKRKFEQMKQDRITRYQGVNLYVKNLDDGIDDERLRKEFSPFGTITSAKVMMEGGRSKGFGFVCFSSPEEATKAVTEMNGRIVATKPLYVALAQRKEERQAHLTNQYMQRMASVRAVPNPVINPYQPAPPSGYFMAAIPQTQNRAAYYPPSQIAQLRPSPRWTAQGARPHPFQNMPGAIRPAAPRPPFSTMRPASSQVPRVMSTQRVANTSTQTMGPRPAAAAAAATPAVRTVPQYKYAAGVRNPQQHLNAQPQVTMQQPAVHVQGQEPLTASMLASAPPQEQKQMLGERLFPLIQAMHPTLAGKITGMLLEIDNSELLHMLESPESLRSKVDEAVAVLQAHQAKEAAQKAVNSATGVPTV
# Rce1 inh – blocks yeast Ras-converting enzyme. Q03530. yeast membranes, quenched prenylated peptide cleavage fluorescence. calls only. hit rate 0.27% among 290,000. AID 2563;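 active means fall in fluorescence gain of 50% or more versus controls, with final raw signal at or below 3038400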;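 further: plate controls were neutral control wells for no effect and wells lacking membranes for full effect; tested at 10 µM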
# Target sequence (Q03530 whole entry, looked up): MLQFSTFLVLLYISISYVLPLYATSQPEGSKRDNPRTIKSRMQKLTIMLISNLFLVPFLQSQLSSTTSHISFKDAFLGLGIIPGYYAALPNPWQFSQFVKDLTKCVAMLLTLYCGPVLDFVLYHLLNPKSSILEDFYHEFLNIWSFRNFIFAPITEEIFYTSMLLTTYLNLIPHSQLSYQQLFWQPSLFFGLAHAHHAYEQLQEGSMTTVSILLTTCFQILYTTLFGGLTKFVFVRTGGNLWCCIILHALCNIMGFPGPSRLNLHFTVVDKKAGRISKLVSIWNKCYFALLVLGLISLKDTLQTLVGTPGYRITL
# Env fusion inh – HIV envelope-mediated fusion inhibition; HeLa-JRFL Env/CEM21 cell fusion, luciferase; inhibition, % at 12.3 µM; AID 651610; hit rate 1.1% among 360,000;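 active means mean replicate inhibition score of at least 50 and every replicate individually at or above 50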;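 further: 0% = plate neutral controls and 100% = maraviroc near 300 nM; one replicate is shown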
# CSC inhib – cancer stem cell inhibition; inhibition, % at 7.5 µM; cancer stem cell-like cells viability, luminescence; hit rate 1.1% among 300,000;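 active means mean at 75% or more and at least half the replicates too; tested in HMLE shEcad cells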;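 further: 0% = median of negative and 100% = median of positive control wells; the first replicate is given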
# UUG fidelity – modulators of start codon recognition fidelity in yeast; AID 602363; hit rate 0.13% among 350,000; activity score, % at 18.7 µM; S. cerevisiae UUG-firefly luciferase reporter, luminescence/redox ratio;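 active means replicate mean at a twofold rise or more, about +100% in these data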;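 further: firefly luciferase made from a UUG start codon reports start codon fidelity; reporter light over untreated wells divided by growth signal over untreated wells; some hits fall short of that in this replicate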
# eIF4H inh – inhibitors of RNA binding by human eIF4H. Q15056. eIF4H fluorescence polarization binding assay. inhibition, % at 35 µM. hit rate 0.94% among 290,000. AID 2012;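 active means 50% or more with normal probe brightness, or confirmed in later tests; about a fifth of its hits are not listed in these tables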;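 further: calls also rest on retests at 20 µM and on dose response follow-up; 0% = protein and probe with vehicle and 100% = probe without protein; strong numbers were not always called active; many hits fall short of the cut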
# MT1-MMP act inh – blocks activation of human MT1-MMP | hit rate 0.061% among 360,000 | P50281 | HT1080 RFP-PRO-GFP cells, GFP/RFP ratio fluorescence, overnight; percent of plate control window, DMSO zero | GFP/RFP ratio change, % at 20 µM | AID 651647;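 active means GFP/RFP ratio change of at least 30% with cell ATP level not reduced by more than half and red fluorescence within 50% of control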; further: strong numbers were not always called active
#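 Test system: HT1080 cells expressing an RFP-PRO-GFP fluorescent reporter construct / Compound dosing: single-point 20 µM compound, 1% DMSO / Schedule: cells overnight before dosing, compound overnight, 37 °C, 5% CO2 / Evaluation: GFP/RFP fluorescence ratio / Control set: DMSO and RFP-L50D-GFP cell wells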
# eIF4H inh retest – second read-out of eIF4H inh, no call of its own (marks repeat the call); inhibition, %; compound at 20 µM; confirmation average;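 mean of two retest wells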
# PABP FP inh retest – further read-out of PABP FP inh, marked with its call; inhibition, %; compound at 20 µM; confirmation repeats;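 mean of two retest wells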
# MT1-MMP act inh RFP – recorded beside MT1-MMP act inh, whose call it bears; RFP signal change, %; measured here: RFP expression control read;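 0 = vehicle wells; hits needed this value within 50% of zero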
# Numbers without * were called inactive; i = inactive; . = no result given; + = active, no number; & = joins results of further samples.
SMILES,PABP FP inh,Rce1 inh,Env fusion inh,CSC inhib,UUG fidelity,eIF4H inh,MT1-MMP act inh,MT1-MMP act inh RFP,others
COc1ccc(S(=O)(=O)NC(CC(=O)O)c2ccco2)cc1 (stereo not drawn),-2,i,-26,-4,.,-3,1,3,
COc1cc(/C=N/NC(=Nc2ccc(C)cc2)c2nc3ccccc3s2)ccc1O,5,i,-220,.,-88,3,-12,-7,
CCOC(=O)N1CCN(C(=O)CSCc2nc(-c3ccccc3F)oc2C)CC1,-5,i,30,-3,17,1,9,-2,
Cc1c(Br)c([N+](=O)[O-])nn1C(C)C(=O)N1CCCc2ccccc21 (stereo not drawn),9,.,.,-15,-3,6,-2,-2,
c1ccc2c(c1)[nH]c1c(N3CCC4(CC3)OCCO4)ncnc12,-11,i,.,.,-15,-5,4,-18,
O=S(=O)(Nc1ccccc1O)c1cccc2cccnc12,-2,i,11,-13,.,-3,-3,-8,
COc1ccccc1/C=[N+](\[O-])C1SC(=S)N(C)C1(C)C (stereo not drawn),11,i,1,-3,.,2,-4,1,
O=C(Cc1n[nH]c(=O)c2ccccc12)Nc1ccc(-c2nnc3n2CCCCC3)cc1,9,i,.,-1,-17,3,-4,3,
COc1ccc(CC(=O)N2CCN(c3ccc(C4=NNC(=O)CC4C)cc3)CC2)cc1 (stereo not drawn),-2,i,.,-17,7,-5,4,2,
Cc1c(Nc2cc(N3CCCC(C)C3)c3nonc3c2[N+](=O)[O-])c(=O)n(-c2ccccc2)n1C (stereo not drawn),-2,i,-73,-10,273*,-1,0,0,
COc1ccc(N2Cc3ccc(OC)c(OC)c3C2=O)cc1,-4,i,-49,-1,-12,2,-3,1,
CSc1ccccc1NC(=O)CN(C)CC(=O)Nc1ccccc1C(F)(F)F,0,i,-5,-15,4,-1,3,3,
O=C(N/N=C/c1ccc([N+](=O)[O-])o1)c1ccc(O)cc1,3,i,-1,-18,-12,71,-17,-16,eIF4H inh retest=12;PABP FP inh retest=5
Cc1ccccc1N(C(=O)Cc1c[nH]c2ccccc12)C(C(=O)NC1CCCCC1)c1ccco1 (stereo not drawn),32,i,51,10,-8,1,-10,-2,
CCCCNc1nnc(SCC(=O)c2c(N)n(CCC)c(=O)[nH]c2=O)s1,.,.,3,-15,-7,.,6,1,
Cc1cc(NC(=O)C2C3C(=O)N(CCC(C)C)C(C(=O)NCc4ccccc4)C34C=CC2(C)O4)no1 (stereo not drawn),-3,i,-87,.,6,4,-3,0,
Cc1cc(C(=O)N/N=C2\CC(=O)CC(C)(C)C2)c2ccccc2n1,-5,i,9,-7,.,7,-4,3,
C=CCSc1ncc(-c2ccccc2)cn1,-7,i,-4,1,-9,2,6,0,
CC[C@@H](C)[C@@H]1CN([C@@H](C)CN2CCC[C@H]2CN2C(N)=NC[C@@H]2Cc2ccccc2)C(=N)N1CCCC1CCCC1,.,.,-5,-6,-3,.,13,6,
CCn1c(COc2c(C)cccc2C)nnc1SCc1nc2ccccc2c(=O)[nH]1,25,i,15,-8,-15,1,4,-2,
Clc1cccc(CN2CCc3c([nH]c4ccccc34)C2)c1Cl,7,+,-3,111*,.,5,0,3,
Cc1ccc(-c2cnc(C(O)c3c(C)cccc3C)[nH]2)cc1 (stereo not drawn),.,.,-23,.,-20,.,-1,2,
COc1ccccc1NC(=O)C(C)Sc1nccn1C (stereo not drawn),.,.,.,14,-17,.,0,0,
O=C(Cn1ccc(NC(=O)OCc2ccccc2)nc1=O)NCCc1ccccn1,.,.,5,-8,-4,.,4,4,
CC1CCc2c(c3ccccc3[nH]c2=O)O1 (stereo not drawn),5,i,.,-13,0,5,-3,0,
CCOc1c(Cl)cc(/C=C/C(=O)N(CC)CC(=O)NCc2cccs2)cc1OC,.,i,-4,-14,0,.,0,-6,
Nc1ccc(-c2nc3ccc(C(=O)O)cc3s2)cc1,-6,i,69*,12,.,7,1,-2,
COC(=O)c1ccc(N=Cc2c(C(F)(F)F)[nH]n(C)c2=O)cc1,3,i,13,10,9,1,2,2,
O=C(COC(=O)c1cccnc1Cl)NCc1ccco1,2,i,3,3,-1,29,5,3,
Cc1cccc(C)c1N1CCN(C(=O)Cn2cncn2)CC1,9,i,5,-7,-13,-15,2,0,
Cc1cc(C)c(OCC(O)CN2CCN(C(=O)c3ccccc3)CC2)c(C)c1 (stereo not drawn),5,i,3,-8,-2,-9,-1,-1,
Fc1ccc(N2N=C(c3cccs3)CC2c2ccccc2)cc1 (stereo not drawn),-12,i,12,-2,.,-3,-7,-5,
COc1ccccc1NC(=O)COC(=O)c1ccccc1C(=O)N1CCN(c2ccccc2)CC1,5,i,5,.,6,102,-8,1,eIF4H inh retest=-3;PABP FP inh retest=3
CCOc1cc2[nH]c(=S)n(Cc3ccc(C(=O)NCC(OC)OC)cc3)c(=O)c2cc1OCC,-4,i,-45,8,-15,-13,4,4,
CC[C@@H](C)[C@H](NC(=O)OCc1ccccc1)c1nnc([C@@H](NC(=O)OCc2ccccc2)[C@@H](C)CC)o1,14,i,-37,-3,-13,11,-25,-25,
CCOc1ccc(CN2CCC(n3nccc3NC(=O)CCCc3ccccc3)CC2)cc1,-3,i,21,4,-9,-2,3,-7,

# A draw from above in order of molar mass, falling.
SMILES,PABP FP inh,Rce1 inh,Env fusion inh,CSC inhib,UUG fidelity,eIF4H inh,MT1-MMP act inh,MT1-MMP act inh RFP,others
CC[C@@H](C)[C@@H]1CN([C@@H](C)CN2CCC[C@H]2CN2C(N)=NC[C@@H]2Cc2ccccc2)C(=N)N1CCCC1CCCC1,.,.,-5,-6,-3,.,13,6,
CC[C@@H](C)[C@H](NC(=O)OCc1ccccc1)c1nnc([C@@H](NC(=O)OCc2ccccc2)[C@@H](C)CC)o1,14,i,-37,-3,-13,11,-25,-25,
COc1ccccc1NC(=O)COC(=O)c1ccccc1C(=O)N1CCN(c2ccccc2)CC1,5,i,5,.,6,102,-8,1,eIF4H inh retest=-3;PABP FP inh retest=3
CCOc1c(Cl)cc(/C=C/C(=O)N(CC)CC(=O)NCc2cccs2)cc1OC,.,i,-4,-14,0,.,0,-6,
CCn1c(COc2c(C)cccc2C)nnc1SCc1nc2ccccc2c(=O)[nH]1,25,i,15,-8,-15,1,4,-2,
O=C(Cn1ccc(NC(=O)OCc2ccccc2)nc1=O)NCCc1ccccn1,.,.,5,-8,-4,.,4,4,
Cc1cc(C)c(OCC(O)CN2CCN(C(=O)c3ccccc3)CC2)c(C)c1 (stereo not drawn),5,i,3,-8,-2,-9,-1,-1,
Clc1cccc(CN2CCc3c([nH]c4ccccc34)C2)c1Cl,7,+,-3,111*,.,5,0,3,
COC(=O)c1ccc(N=Cc2c(C(F)(F)F)[nH]n(C)c2=O)cc1,3,i,13,10,9,1,2,2,
Fc1ccc(N2N=C(c3cccs3)CC2c2ccccc2)cc1 (stereo not drawn),-12,i,12,-2,.,-3,-7,-5,
O=C(COC(=O)c1cccnc1Cl)NCc1ccco1,2,i,3,3,-1,29,5,3,
Cc1ccc(-c2cnc(C(O)c3c(C)cccc3C)[nH]2)cc1 (stereo not drawn),.,.,-23,.,-20,.,-1,2,
COc1ccccc1NC(=O)C(C)Sc1nccn1C (stereo not drawn),.,.,.,14,-17,.,0,0,
Nc1ccc(-c2nc3ccc(C(=O)O)cc3s2)cc1,-6,i,69*,12,.,7,1,-2,
C=CCSc1ncc(-c2ccccc2)cn1,-7,i,-4,1,-9,2,6,0,
CC1CCc2c(c3ccccc3[nH]c2=O)O1 (stereo not drawn),5,i,.,-13,0,5,-3,0,

# (more compounds)
SMILES,PABP FP inh,Rce1 inh,Env fusion inh,CSC inhib,UUG fidelity,eIF4H inh,MT1-MMP act inh,MT1-MMP act inh RFP,others
CCC1CCCCN1CCCNC(=O)C1CCN(S(=O)(=O)N2CCC3(CC2)OCCO3)CC1 (stereo not drawn),14,i,8,-14,3,8,3,6,
C=CCNc1nc(Cl)nc(Nc2cc(Cl)ccc2OC)n1,-8,i,-42,21,-9,-12,1,-2,
Cc1ccc(C(=O)CCNc2ccc(F)c(Cl)c2)o1,-1,i,-57,28,-11,-4,-5,-8,
S=C(c1cn(Cc2ccccc2)c2ccccc12)N1CCOCC1,-4,i,-2,-13,.,6,0,3,
Cc1nn(C(=O)c2ccco2)c(C)c1CN1C(=O)c2ccccc2C1=O,7,i,.,-11,-8,-3,-2,2,
O=S(=O)(NC1CC1)c1ccc(S(=O)(=O)N2CCC3(CC2)OCCO3)cc1,-2,i,3,0,.,-6,3,-3,
Cc1cc2cc(C#N)c(NCCNC(=S)NCCCN3CCOCC3)nc2cc1C,2,+,-5,.,.,-6,-2,1,
COc1cc(C(Nc2ccc(S(=O)(=O)NCC3CCCO3)cc2)C(=O)NC(C)(C)C)cc(OC)c1OC (stereo not drawn),0,i,-14,8,7,-7,5,1,
COc1c2c(nc3occc13)C(CC=C(C)C)(OC)C(O)CC2 (stereo not drawn),-1,i,-15,-5,-12,0,3,0,
Cc1ccc(O)c(NC(=O)c2cc(-c3ccco3)on2)c1,-2,i,-8,17,-12,-14,-5,-8,
O=C(Nc1cccc(-c2csc(Nc3ccccc3)n2)c1)c1cc([N+](=O)[O-])cc(C(F)(F)F)c1,-8,i,-12,58,-11,-1,6,2,
CC(=O)N1CCN(C(=S)c2cccc([N+](=O)[O-])c2)CC1,-1,i,15,-20,.,6,-1,1,
COc1cc(/C=N\NC(=O)c2ccc(C)nc2)ccc1OC(=O)c1cccc(F)c1,12,i,-21,-14,-10,-7,2,2,
CCOC(=S)N/C(=N\S(C)(=O)=O)c1ccccc1,-6,i,2,-11,.,-8,2,5,
CCOC(=O)C1(Cc2ccccc2C)CCCN(C(=O)c2ccc(OC)o2)C1 (stereo not drawn),14,i,49,-2,-5,2,0,3,
CCN(c1ccccc1)S(=O)(=O)c1ccc(C(=O)N(C)CCc2ccc(OC)c(OC)c2)cc1,-17,i,2,-2,-8,14,1,-1,
Cc1cc(-c2cc(-c3ccccc3)on2)nc(NCC2CC2)n1,5,i,13,20,-14,-11,1,-2,
C[C@@H]1CCCCO[C@H](CN(C)C(=O)Nc2cccc3ccccc23)[C@@H](C)CN([C@H](C)CO)C(=O)c2cc(NC(=O)c3ccccc3)ccc2O1,.,.,-26,.,-6&-4,.,-3,-5,
CN(C(=O)/C(N=Nc1cccc(C(F)(F)F)c1)=C(\O)C(F)(F)F)c1ccccc1,-3,i,7,38,-10,1,-6,0,
COc1ccc2cc(CCNC(=O)C(C)C)c(=O)[nH]c2c1,-1,i,-15,-2,-16,0,5,3,
Cc1ccc(C)c(OCCCC(=O)O)c1,21,i,-65,5,4,-5,0,1,
Cc1csc(=O)n1CCC(=O)OC(C)C(=O)NCc1ccccc1 (stereo not drawn),.,.,5,.,-10,.,3,3,

# Compound activity (PubChem BioAssay)

# The list is partial; rates above refer to the full screens.
